RGS16-Gao = modulators of RGS16 binding to Galphao, primary screen, biochemical, human proteins, multiplexed bead flow cytometry | Regulator of G-protein signaling 16 (Homo sapiens) + Guanine nucleotide-binding protein … | bead-based flow cytometry RGS16-Galphao binding, fluorescence; actives lie on both sides | binding response (% of control), % at 10 µM | hit rate 0.38% among 220,000;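 active = below 25% or above 175%, edge rows of some plates excepted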;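 also: Galphao activated by GDP with aluminum fluoride before binding; 100% = wells without compound and 0% = beads without RGS; some results beyond the cut were filed as inactive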
Insulin prom inh = inhibitors of insulin promoter-driven GFP, primary screen, imaging, TRM-6 cells (human fetal islet line), eGFP reporter, cell count | reporter expression induced with tamoxifen | inhibition, % at 2 µM | hit rate 0.9% among 130,000;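 active = inhibition above the mean plus 3 SD, with well images judged a real hit on visual review, cut at about 60% in these data, passing the limit was not always enough; inconclusive = inhibition over the cutoff but images rejected on review; inactive = inhibition not above the cutoff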
GALR2 agonist = GALR2 receptor agonists, primary screen, cell-based | GALR2-expressing cells, agonist activation read-out | hit rate 0.48% among 140,000 | Galanin receptor type 2 (Homo sapiens), O43603 | AID 803, 2007 | activation, %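 (tested at 5 µM)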;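 active = above mean plus 3 SD of all compounds, about 5% in these data, not always enough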;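 also: 0% = vehicle buffer wells and 100% = reference agonist at full effect; tested in CHO reporter cells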
HSV augment = enhancers of HSV replication in host cells, fold increase, host cell viability; HSV replication augmentation in cells; maximum fold increase; hit rate 0.005% among 220,000; AID 1956, 2009;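 active = peak rise of 1.5-fold or more in the series; inconclusive = self-fluorescent or not available for retest; tested in PC3 cells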;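 also: first round at 10 µM; read as green reporter fluorescence; hits show the peak of a series up to 25 µM; 1 = signal of infected wells without compound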
PKD1 inh = inhibitors of human PKD1 kinase, biochemical, fluorescence polarization | PKD1 kinase fluorescence polarization assay | inhibition, %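 (about 10 µM by stock and volumes)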 | hit rate 0.056% among 200,000;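 active = inhibition of 50% or more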;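 also: controls were vehicle for no effect and a reference inhibitor for full effect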
Target sequence (Q15139 whole entry, looked up): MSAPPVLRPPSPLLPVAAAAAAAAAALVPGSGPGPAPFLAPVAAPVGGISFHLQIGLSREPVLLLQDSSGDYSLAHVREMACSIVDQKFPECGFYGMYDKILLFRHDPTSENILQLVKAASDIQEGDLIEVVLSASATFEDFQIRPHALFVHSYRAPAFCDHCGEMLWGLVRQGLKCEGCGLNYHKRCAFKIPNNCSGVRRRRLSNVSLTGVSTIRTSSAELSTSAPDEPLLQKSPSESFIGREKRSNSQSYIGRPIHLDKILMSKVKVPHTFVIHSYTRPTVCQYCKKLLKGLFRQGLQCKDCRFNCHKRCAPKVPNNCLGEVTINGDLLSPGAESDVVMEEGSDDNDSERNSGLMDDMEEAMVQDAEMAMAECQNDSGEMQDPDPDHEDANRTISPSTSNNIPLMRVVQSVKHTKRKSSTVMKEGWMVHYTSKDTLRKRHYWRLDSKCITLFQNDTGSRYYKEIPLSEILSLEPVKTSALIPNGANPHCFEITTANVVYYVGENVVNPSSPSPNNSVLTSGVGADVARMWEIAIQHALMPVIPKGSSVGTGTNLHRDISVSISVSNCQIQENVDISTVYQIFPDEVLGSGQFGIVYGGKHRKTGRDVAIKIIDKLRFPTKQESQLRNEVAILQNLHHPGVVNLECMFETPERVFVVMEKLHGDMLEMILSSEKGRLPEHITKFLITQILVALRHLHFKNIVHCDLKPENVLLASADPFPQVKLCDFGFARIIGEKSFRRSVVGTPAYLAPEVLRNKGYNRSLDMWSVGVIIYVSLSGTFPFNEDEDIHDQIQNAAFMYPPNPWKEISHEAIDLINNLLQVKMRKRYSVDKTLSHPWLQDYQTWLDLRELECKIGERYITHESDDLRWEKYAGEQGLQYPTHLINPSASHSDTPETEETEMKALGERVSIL
Insulin prom inh cell count = second read-out of Insulin prom inh, no call of its own (marks repeat the call); normalized cell count, %; measured here: cell count, toxicity; reference of the scale not given here;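 cells exposed to compound for 48 h; stained nuclei by imaging scaled within each plate; lower means fewer cells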
HSV augment primary fold = recorded beside HSV augment, whose call it bears; fold increase; compound at 10 µM; measured here: primary screen fold increase 10 uM; tested in PC3 cells;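 GFP signal in the first replicate; 1 = infected wells without compound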
The depositor's hits bear a star; i = inactive; u = inconclusive; x = no result given.

SMILES | RGS16-Gao | Insulin prom inh | Insulin prom inh cell count | GALR2 agonist | HSV augment | HSV augment primary fold | PKD1 inh
O=C1c2ccccc2C(=O)N1CCCc1nc2ccccc2c(=O)n1Cc1ccco1 | 102 | x | x | -0.7 | i | 0.95 | -11
CC1(C)NC(=O)N(CC(=O)OCC(=O)Nc2cc(S(=O)(=O)N3CCCCCC3)ccc2Cl)C1=O | 105 | x | x | -0.6 | i | 0.9 | 4
CC1=CC(=Nc2c(C)n(C)n(-c3ccccc3)c2=O)C=CC1=O | 93 | x | x | x | i | 1.2 | x
CCC(=O)NNc1nc2c(C)c(C)ccc2s1 | 101 | 17 | 131 | x | i | 0.98 | -9
Cc1ccc(NC(=O)COC(=O)c2ccc3c(c2)OCO3)c(C)c1 | 99 | x | x | x | i | 0.81 | x
O=C(CCNC(=O)Cn1ccc2ccccc2c1=O)NCCN1CCN(c2cccc(Cl)c2)CC1 | 99 | x | x | -4.0 | i | 0.98 | -1
NC(=O)NC1NC(=O)NC1=O (centres undefined) | 100 | x | x | x | i | 0.78 | x
CCOc1cc2c(C#N)c(N3CCCCC3)nc(N)c2c(N)n1 | 105 | -4 | 93 | -2.0 | i | 1 | 0
CCn1c(SCC(=O)NCc2ccccc2)nnc1-c1ccccc1O | 99 | 57 | 93 | 0.6 | i | 1.2 | 4
CCN(CC)CCn1cnc2c1c(=O)n(CCOC(=O)c1cc(OC)c(OC)c(OC)c1)c(=O)n2C | 147 | x | x | x | i | 0.98 | x
CCCCCCC1CCC(c2nc(-c3ccncc3)no2)CC1 (centres undefined) | 97 | -13 | 130 | -0.6 | i | 1 | 7
CCN(CC(=O)NCc1ccc(F)cc1)C(=O)COc1ccc(C)c(C)c1 | 68 | 0 | 99 | -0.4 | i | 1.1 | -6
C=CCOc1ccc(C2=NO[C@@H]3[C@@H]4C[C@@H]([C@H]5C(=O)N(C)C(=O)[C@@H]45)[C@H]23)cc1 | 99 | x | x | x | i | 0.96 | x
CC(C)Cc1cc(C(=O)Nc2cc(C(F)(F)F)ccc2Cl)no1 | 98 | 17 | 95 | -3.3 | i | 1.1 | -9
CCCNc1nc(N2CCCC2)nc(N2CCCC2)n1 | 105 | 83* | 108* | x | i | 0.75 | 2
O=C(Cn1nc(-c2ccccc2)c2ccccc2c1=O)NCCN1CCOCC1 | 102 | x | x | -0.8 | i | 0.98 | -9
CCOCCCNC(=O)/C(C#N)=C/c1ccc(C(=O)OC)cc1 | 116 | x | x | x | i | 0.92 | 3
CC(/C=C1\SC(=O)N(CC(=O)Nc2ccc(O)cc2)C1=O)=C\c1ccccc1 | 94 | 39 | 142 | 0.5 | i | 0.77 | -4
CCc1ccccc1NC(=O)C(CC)Sc1nc2cc3c(cc2c(=O)n1Cc1ccco1)OCO3 (centres undefined) | 105 | -100 | 77 | -2.6 | i | 0.86 | 1
CCn1c(SCC(=O)Nc2ccc(OC)cc2OC)nc2nc3c(cc2c1=O)COC(C)(C)C3 | 98 | x | x | x | i | 0.88 | x
CCC12CCCN3CCC4(C(=C(C(=O)OC)C1)Nc1ccccc14)C32 (centres undefined) | 102 | -82 | 100 | -2.0 | i | 0.92 | 5
Cn1cnc2cc(NC(=O)c3ccc(Cl)cc3)ccc21 | 133 | x | x | -1.0 | i | 0.7 | -10
COC(=O)C(C)Sc1snnc1-c1ccccc1 (centres undefined) | 102 | -25 | 176 | -1.4 | i | 0.96 | -3
COc1ccc(C(=O)COC(=O)c2ccccc2NS(=O)(=O)c2ccc(O)c([N+](=O)[O-])c2)cc1 | 102 | x | x | x | i | 1.1 | x
COc1ccc(NC(=O)c2ccc(NCC3CCCO3)c([N+](=O)[O-])c2)cc1 (centres undefined) | 108 | 24 | 117 | x | i | 1 | -16

Given with two lines to a compound: entries from further up
Sequence of screens – RGS16-Gao, Insulin prom inh, Insulin prom inh cell count, GALR2 agonist, HSV augment, HSV augment primary fold, PKD1 inh
> CCN(CC(=O)NCc1ccc(F)cc1)C(=O)COc1ccc(C)c(C)c1
  68, 0, 99, -0.4, i, 1.1, -6
> CC1=CC(=Nc2c(C)n(C)n(-c3ccccc3)c2=O)C=CC1=O
  93, x, x, x, i, 1.2, x
> CCCNc1nc(N2CCCC2)nc(N2CCCC2)n1
  105, 83*, 108*, x, i, 0.75, 2
> O=C1c2ccccc2C(=O)N1CCCc1nc2ccccc2c(=O)n1Cc1ccco1
  102, x, x, -0.7, i, 0.95, -11

Other compounds follow.
SMILES | RGS16-Gao | Insulin prom inh | Insulin prom inh cell count | GALR2 agonist | HSV augment | HSV augment primary fold | PKD1 inh
O=C(Cc1cn2ccsc2n1)Nc1ccccc1Oc1ccccc1 | 117 | x | x | -0.4 | i | 1.1 | -17
O=C(OC1CCOC1=O)c1cccc(S(=O)(=O)Nc2ccc(F)cc2)c1 (centres undefined) | 67 | 50 | 93 | -0.4 | i | 0.97 | 2
O=C1NCC(c2ccccc2)C1C(=O)N/N=C\c1ccc(-c2cccc(Cl)c2Cl)o1 (centres undefined) | 113 | 4 | 99 | -1.0 | i | 0.81 | -10
COC(=O)c1ccc(COC(=O)CNC(=O)CNC(=O)c2ccc(C)cc2)cc1 | 103 | x | x | x | i | 0.99 | -4
Oc1ccccc1CNc1ccc(Br)cn1 | 105 | 32 | 94 | -0.3 | i | 0.78 | 1
O=S(=O)(c1cccc2nsnc12)N1CCN(c2ncccn2)CC1 | 97 | -24 | 104 | -1.3 | i | 0.87 | -13
CC(C)(C)NC(=O)c1ccc(COc2ccccc2Br)o1 | 96 | x | x | -1.3 | i | 1 | 4
CSc1ccc(-c2nc(O)c3cnccn23)cc1 | 107 | x | x | x | i | 1.1 | -2
COc1ccc(NC(=O)Cn2nc3n(c2=S)CCC3)cc1 | 104 | x | x | -4.0 | i | 1 | -4
Cn1c(SCC(=O)Nc2ccc(Br)cc2)nc(O)cc1=O | 101 | x | x | x | i | 1 | x
CCOC(=O)c1[nH]c(C)c(C(=O)NC2CCCCC2)c1C | 89 | x | x | -0.6 | i | 0.93 | -3
CCOc1nc(NCCO)nc(NCCC2=CCCCC2)n1 | 106 | -162 | 120 | -2.2 | i | 0.98 | 6
O=C(NCCc1cccc(Cl)c1)c1cccnc1 | 97 | 52 | 119 | -3.9 | i | 0.99 | -4
CCc1cc(C(=O)c2ccc(OC)cc2)c(NC(=O)CC(C)(C)CC(=O)O)s1 | 96 | x | x | x | i | 1.1 | x
Cc1ccc(C2=NN(CC(=O)NCc3cccnc3)C(=O)CC2)cc1 | 121 | -16 | 112 | -1.2 | i | 0.94 | -4
Cn1c(=O)c2c(nc(NCCOc3ccc(C(C)(C)C)cc3)n2C)n(C)c1=O | 104 | 6 | 119 | -0.6 | i | 0.86 | -7
COc1ccc(Cl)cc1C(=O)NNC(=O)c1cccc(S(=O)(=O)N(C)C)c1 | 108 | x | x | 0.8 | i | 1.3 | 9
CCOC(=O)C1CN(S(=O)(=O)c2cccc(C(F)(F)F)c2)c2cc(CC(=O)OC)ccc2O1 (centres undefined) | 102 | 7 | 114 | -1.3 | i | 0.88 | -1
Cc1ccc(S(=O)(=O)NNC(=S)Nc2c(Cl)cccc2Cl)cc1 | 98 | x | x | x | i | 1 | x
Cc1ccc(C(=O)C(OC(=O)c2cnccn2)c2ccccc2)cc1C (centres undefined) | 91 | 50 | 103 | -1.9 | i | 1 | 5
O=C(CCC(=O)Nc1nnc(C2CCCCC2)s1)NCC1CCCO1 (centres undefined) | 109 | 19 | 151 | -0.4 | i | 0.8 | 0
COc1ccc(-n2cc(C(=O)c3cc4ccccc4oc3=O)c(C(C)=O)n2)cc1 | 99 | -6 | 87 | -2.1 | i | 0.91 | 2
c1ccc(-c2csc(NNC3=NCCCCC3)n2)cc1 | 102 | 5 | 65 | -1.6 | i | 0.93 | -4
O=C(CSc1ccc2c(c1)OCCO2)Nc1ccc2c(c1)OCO2 | 104 | 7 | 140 | -2.3 | i | 0.98 | -2
CCOC(=O)CN(C#N)c1nc(N(C)C)nc(N(C)C)n1 | 104 | 25 | 141 | x | i | 0.78 | -8

In the list so far, 4 contain fluorine.
SMILES | RGS16-Gao | Insulin prom inh | Insulin prom inh cell count | GALR2 agonist | HSV augment | HSV augment primary fold | PKD1 inh
CCN(CC(=O)NCc1ccc(F)cc1)C(=O)COc1ccc(C)c(C)c1 | 68 | 0 | 99 | -0.4 | i | 1.1 | -6
CC(C)Cc1cc(C(=O)Nc2cc(C(F)(F)F)ccc2Cl)no1 | 98 | 17 | 95 | -3.3 | i | 1.1 | -9
O=C(OC1CCOC1=O)c1cccc(S(=O)(=O)Nc2ccc(F)cc2)c1 (centres undefined) | 67 | 50 | 93 | -0.4 | i | 0.97 | 2
CCOC(=O)C1CN(S(=O)(=O)c2cccc(C(F)(F)F)c2)c2cc(CC(=O)OC)ccc2O1 (centres undefined) | 102 | 7 | 114 | -1.3 | i | 0.88 | -1

Next compounds.
SMILES | RGS16-Gao | Insulin prom inh | Insulin prom inh cell count | GALR2 agonist | HSV augment | HSV augment primary fold | PKD1 inh
Cc1[nH]nc2c1C(c1cccc(O)c1)C1=C(CC(C)(C)CC1=O)N2 (centres undefined) | 102 | 19 | 106 | -3.8 | i | 1.1 | 10
Cc1nnc2n1CCCCC2 | 105 | x | x | x | i | 1 | x
COC(=O)c1sccc1NS(=O)(=O)c1ccc(OC)cc1 | 104 | x | x | -2.6 | i | 0.91 | -1
COc1ccccc1NC(=O)N(Cc1ccccc1)C1=NCC(C)S1 (centres undefined) | 98 | 36 | 82 | -0.3 | i | 0.98 | 9
N#Cc1nc(-c2cccc3ccccc23)oc1NCCN1CCCCC1 | 99 | -59 | 130 | 1.1 | i | 1 | -5
CNC(=O)Cn1nc(C)c2ccccc2c1=O | 103 | x | x | -0.6 | i | 0.78 | -8
CCOC(=O)C(CC)n1cnc2c(oc3ccccc32)c1=O (centres undefined) | 102 | 19 | 109 | -1.3 | i | 0.9 | -5
Cc1ccc(-n2c(SCC(=O)N3CCOCC3)nnc2-c2ccncc2)cc1C | 96 | x | x | x | i | 0.97 | x
CCn1c(SCC(=O)Nc2ccc(OC)cc2)nc2nc3c(cc2c1=O)COC(C)(C)C3 | 114 | x | x | x | i | 0.92 | x
O=C(c1ccccc1)N1CCC(c2nc3c(nnn3Cc3ccco3)c(=O)[nH]2)CC1 | 105 | x | x | -3.2 | i | 1 | -11
CC1CCCCC1NC(=O)c1ccc(S(=O)(=O)NCC2CCCO2)cc1 (centres undefined) | 110 | 17 | 131 | x | i | 0.88 | -3
CCOC(=O)c1cc(C)n(Cc2cccc(OC)c2OC)c1C | 99 | x | x | -2.6 | i | 0.99 | 0
CN(C)c1ccc(C(=O)/C=C/c2ccco2)cc1 | 88 | -308 | 123 | -1.0 | u | x | 3
O=C(CN1CCCN(S(=O)(=O)c2ccc(Br)cc2)CC1)Nc1ccc2c(c1)OCO2 | 101 | -137 | 92 | -0.1 | i | 0.95 | -7
O=C(N1CCCCC1)N1CCCN(C(=O)N2CCCCC2)CC1 | 100 | 6 | 112 | -2.3 | i | 0.93 | 1
CC(=O)Nc1ccc(S(=O)(=O)Nc2nccc(/C=C/c3ccc(Cl)cc3)n2)cc1 | 77 | x | x | -0.8 | i | 0.76 | -3
COc1ccccc1-n1cc(CN2CCN(CC=C(C)C)C(CCO)C2)cn1 (centres undefined) | 94 | x | x | x | i | 1 | x
Cc1cnn(C(=S)NCC2CCCO2)c1 (centres undefined) | 157 | x | x | -0.4 | i | 0.92 | 4
O=C(N1CCCC1)C12CCC3CC(CC(C3)C1)C2 | 102 | -13 | 112 | -0.6 | i | 1.1 | 6
CCOc1ccc2nc(NC(=O)c3cccc(-c4cc5ccccc5oc4=O)c3)sc2c1 | 145 | x | x | -0.2 | i | 0.71 | 4
CCOC(=O)C1(CCOc2ccccc2)CCN(Cc2cccc(-n3cccn3)c2)CC1 | 101 | x | x | x | i | 0.98 | 1
COC(=O)Cc1cc(=O)[nH]c(/N=C(\N)Nc2ccccc2C)n1 | 105 | -181 | 42 | -1.2 | i | 0.91 | -7
Cc1cc(C)n(C(=O)c2cc3c(s2)CCCC3)n1 | 108 | -34 | 129 | -1.9 | i | 0.94 | -5

Screens from PubChem.
